PINK1 expr mod = PINK1 expression modulation; PINK1 immunofluorescence, high-content cytometry, 24 h; Potency, µM (series often up to 76.6 µM), for the others: at the top dose activation (PINK1 increase), most hits filed as activators; 410,000 compounds, 0.2% hits; active = well fitted activation curve with a large enough effect; inconclusive = small, poorly fitted or top-dose-only effect; inactive = flat fitted curve, though single readings scatter; cell line not stated here;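 note: potency is the fitted concentration of half-maximal effect; % of control where 0% means no effect; nearly all actives have a fitted effect of over 65% in size; a mitochondrial uncoupler was the plate control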
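Stable cell line, 250 cells/well, 12 h attachment; compounds pinned at 5 concentrations, 24 h; CCCP control. Fixed with nuclear dye, primary antibodies 12 h at 10 degrees C, secondary plus cell stain; laser-scanning cytometer read.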
gsp antagonist = antagonizes gsp, the McCune-Albright syndrome mutation; AID 624288; 340,000 compounds, 0.4% hits; Potency, µM (top dose mostly 76.9 µM), without a hit: at the top dose activity change, negative = inhibition, usual class: inhibitors; gsp-mutant cells, cAMP HTRF, 30 min; control for the full effect not named in the record; active = falling curve of any shape with a large fitted effect; inconclusive = falling curve, mostly with a smaller effect; inactive = flat or rising curve; cell line not stated here;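 note: intracellular cAMP measured with PDE inhibitor Ro 20-1724 present during compound exposure; potency is the fitted concentration of half-maximal effect; % is set by controls: 0 for no effect and ±100 for the full control effect; nearly all actives have a fitted effect of over 65% in size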
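HTRF cAMP measurement after 30 min RT detection following 30 min, 37C compound treatment alongside […] (added as 300 uM solution) in G418-selected cells seeded at 2000/well and grown 16–24 h.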
gsp ag = activates gsp, the McCune-Albright syndrome mutation; gsp mutant cells, cAMP HTRF, 30 min; control for the full effect not named in the record; 340,000 compounds, 0.13% hits; Potency, µM (top dose mostly 76.9 µM), for inactives: top-dose activation (cAMP increase), actives largely listed as activators; AID 624287; active = well fitted activation curve with a large enough effect; inconclusive = small, poorly fitted or top-dose-only effect, or another doubt; inactive = no such curve, though single readings can be large or run the other way; cell line not stated here;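 note: phosphodiesterase inhibitor Ro 20-1724 added with compounds to block cAMP breakdown; potency is the fitted concentration of half-maximal effect; nearly all actives have a fitted effect of over 60% in size; about a fifth of the inactives were tested at one dose only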
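Cells in DMEM/10% FBS with G418 were pretreated with compounds in DMSO plus […] (300 uM stock) for 30 min at 37C. cAMP was measured by HTRF (cAMP-d2 plus anti-cAMP antibody-K) after 30 min at room temperature.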
ClpP mod = qHTS Assay for Activators of ClpP. Potency, µM (highest dose often 57.5 µM), for inactives: top-dose activity change, negative = active. purified B. subtilis ClpP, FRET peptide cleavage, 20 min. 340,000 compounds, 1.9% hits. AID 651965, 2013. ATP-dependent Clp protease proteolytic subunit (Bacillus subtilis (strain 168)), P80244; active = well fitted falling curve with a large enough effect; inconclusive = small, poorly fitted or top-dose-only effect; inactive = no such curve, though single readings can be large or run the other way; note: potency is the fitted concentration of half-maximal effect; the source files actives as falling curves though it sought activators and does not explain the sign; nearly all actives have a fitted effect of over 65% in size; many hits overshoot -100%
Target sequence (P80244 whole entry, looked up): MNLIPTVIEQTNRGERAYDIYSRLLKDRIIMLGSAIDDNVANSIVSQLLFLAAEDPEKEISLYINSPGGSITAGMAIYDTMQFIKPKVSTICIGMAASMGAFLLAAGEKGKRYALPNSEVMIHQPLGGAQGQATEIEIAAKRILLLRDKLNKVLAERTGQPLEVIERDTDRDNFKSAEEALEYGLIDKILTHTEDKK
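FRET quenching reversal measured ClpP activation: 10 microg/mL B. subtilis ClpP at pH 8 with the FRET-FV decapeptide, read at 430 nm after 320 nm excitation. The 20-min minus 0-min signal was scaled between DMSO/no-enzyme wells and ADEP (5.8 microM final).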
D2 agonist = agonists of human D2 dopamine receptor (beta-arrestin). P14416. DiscoveRx PathHunter D2 beta-arrestin, luminescence, 90 min; 100% = 57 uM dopamine signal. activation, % (concentration not given with the values). 360,000 compounds, 0.084% hits. AID 624465; in the data active = activation above about 40%; inconclusive = about 15% to 40%; inactive = below about 15%; note: the text of the record calls up to 30% inactive
Target sequence (P14416 whole entry, looked up): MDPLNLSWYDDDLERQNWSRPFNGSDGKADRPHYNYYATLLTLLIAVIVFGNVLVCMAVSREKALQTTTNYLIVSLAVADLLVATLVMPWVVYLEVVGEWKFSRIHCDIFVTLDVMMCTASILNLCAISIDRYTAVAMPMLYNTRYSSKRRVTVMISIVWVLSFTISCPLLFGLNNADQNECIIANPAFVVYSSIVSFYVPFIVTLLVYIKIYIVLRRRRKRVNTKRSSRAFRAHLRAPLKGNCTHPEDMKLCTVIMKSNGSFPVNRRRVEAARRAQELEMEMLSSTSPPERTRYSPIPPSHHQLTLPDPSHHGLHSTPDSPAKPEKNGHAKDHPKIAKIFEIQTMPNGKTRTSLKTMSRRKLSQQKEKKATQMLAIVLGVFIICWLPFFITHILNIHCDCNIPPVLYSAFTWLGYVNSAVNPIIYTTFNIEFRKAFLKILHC
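Agonist mode: compounds alone added to overnight-plated D2 PathHunter cells for 90 min at 37 C, with 57 uM final dopamine (EC100) defining full response. Beta-arrestin recruitment detected by chemiluminescent reagent, read after 1 h at ambient temperature.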
Sfp inh = blocks B. subtilis Sfp PPTase activity | Q9F4F7 | Biochemical Sfp PPTase activity, qHTS | 310,000 compounds, 3.5% hits | AID 1490 | Potency, µM, without a hit: max response, negative = inhibition, actives largely listed as inhibitors; active = well fitted inhibition curve with a large enough effect; inconclusive = small, poorly fitted or top-dose-only effect, or another doubt; inactive = no such curve, though single readings can be large or run the other way;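 note: the enzyme is Sfp with the accession as filed and its product quenches rhodamine fluorescence; potency is the fitted concentration of half-maximal effect; 0% = enzyme reaction without inhibitor and -100% = no enzyme wells; top concentration of the series not given in the record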
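Fluorescence-quenching assay: 15 nM Sfp-PPTase preincubated 15 min at room temperature with compound, then 5 uM rhodamine-CoA and 12.5 uM BHQ-2-labelled YbbR peptide added. Fluorescence (ex 525/em 598 nm) read at start and after 30 min; difference gives rate.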
Menin MLL FP FL = menin-MLL binding inhibition, fluorescein peptide | AID 1766 | Fluorescence polarization, fluorescein-MLL peptide displacement from menin | 290,000 tested, under 10 active | FP activity change, % at 61.4 µM; inconclusive = falling polarisation curve, or a change in total fluorescence; inactive = total fluorescence flat and polarisation flat or rising; no compound was filed as active; the % refers to the polarisation; negative = inhibition;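 note: % of control where 0% means no effect; inhibitors lower the polarisation; unlabelled MLL peptide was the positive control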
Numbers without * were called inactive; ? = inconclusive; nt = no result given; & = joins results of further samples; [ ] = remark or other dose.

Molecule	PINK1 expr mod	gsp antagonist	gsp ag	ClpP mod	D2 agonist	Sfp inh	Menin MLL FP FL
O=C(CSc1ncn[nH]1)NC12CC3CC(CC(C3)C1)C2	1.6%	4%	-22%	0.3%	-2.3	-13%	3.1
CC(C)CNS(=O)(=O)c1ccc(OCC(=O)Nc2ccc3c(c2)OCCO3)cc1	0.2%	-20%	5%[15.4 µM]	-0.6%	-19	32%[activator]	0.8
Cc1cccc(N2CCN(C(=O)CN3CCOc4ccccc43)CC2C)c1 (centres undefined)	0.1%	-6%	-20%	-3.4%	-1.6	9%	1.0
Cc1cc(NC(=O)c2ccc(C)s2)n(-c2ccccc2)n1	-0.1%	9%	7%	1.7%	-0.5	11%	-0.6
CCN(c1ccccc1)S(=O)(=O)c1ccc(C(=O)Nc2nccs2)cc1	6.4%	-1%	?	?	2.6	-25%	2.2
COc1cccc(CN2CC(C(=O)NCc3ccc(Cl)s3)CCC2=O)c1 (centres undefined)	-0.1%	14%	-60%[inhibitor]	1.1%	-1.0	10%	-0.9
Cc1cc(C)c(OCCCCN2CCNCC2)c(C)c1	1.4%	-12%	-20%	-1.3%	-5.1	12%	-0.8
O=C(NCCCN1CCCC1=O)c1ccc(NS(=O)(=O)c2ccccc2)cc1	1.4%	12%	0%[15.4 µM]	nt	-2.4	nt	nt
Cc1ccc(-c2cc(C(=O)NCCCN3CCOCC3)no2)cc1	-1.0%[38.3 µM]	3%	-9%	-0.8%	1.7	13%	1.7
O=C(c1cn(-c2ccccc2)nc1-c1cccs1)N1CCOCC1	-0.8%	2%	-43%[inhibitor]	-22%	-5.3	7%	-0.5
Cc1ccccc1NC(=O)NCC1CCN(C(=O)OC(C)(C)C)CC1	-0.6%	13%	1%[15.4 µM]	0.0%	-8.5	12%	-1.8
CCCCC(=O)N1C/C=C\[C@H](c2ccc(OC)cc2)N(Cc2ccc(F)cc2)C(=O)[C@@H]1C	2.9%	-15%	-26%	-0.2%	-0.4	nt	nt
CC(C)(C)C(=O)Nc1c2c(nn1-c1ccccc1)CSC2	0.2%	3%	-2%	1.3%	-2.6	13%	-3.8
Cc1ccc(-n2nnc3c(=O)n(Cc4cc(C)ccc4C)cnc32)cc1	?	4%	12%	-0.6%	-4.3	-5%	-0.1
Cc1ccccc1C(=O)NNc1ccc(-c2csnn2)cc1	0.4%	-2%	-5%[15.4 µM]	nt	-3.1	4%	2.2
O=C1c2ccc(Br)cc2C(=O)N1c1ccc(Cl)cn1	0.4%	-7%	17%	-0.9%	-0.1	13%	2.4
O=C(O)CCCCCN1C(=O)c2ccc(C(=O)O)cc2C1=O	nt	1%	16%	0.2%	0.7	21%	1.8
O=C(O)CC(NC(=O)CCC1CCCCC1)c1cc([N+](=O)[O-])ccc1Cl (centres undefined)	0.3%	-7%	-14%[15.4 µM]	nt	-0.9	-3%	-1.6
CC1(c2ccc(Cl)cc2)NC(=O)N(CN2CCOCC2)C1=O (centres undefined)	0.2%	2%	6%[15.4 µM]	nt	-2.2	12%	-0.7
Cc1ccc(-n2nc3ccc(N)cc3n2)cc1Cl	3.8%	17%	5%	-4.9%	-5.9	7%	-4.4
Cc1nnc(NC(=O)CSc2nc(C3CCCCC3)nc3ccccc23)s1	nt	-3%	?	1.0%	1.8	11%	-1.0
Cc1cc(C)c2c(=O)[nH]c(SCC(=O)c3ccc(C)c(C)c3)nc2n1	0.4%	5%	-8%[15.4 µM]	nt	2.1	56µM*	?
CCOC(=O)Nc1ccc2c(c1)OCO2	-0.7%	11%	-19%	0.9%	-2.7	14%	6.0
Cc1ccc(C(=O)NNC(=O)c2ccco2)cc1	7.6%	9%	-13%	-2.3%	1.7	0%	4.0
Cc1cc(C)n2ncc(/C(N)=N/OC(=O)c3ccccc3F)c2n1	-0.2%	-12%	13%[15.4 µM]	0.0%	2.8	9%	0.7
COc1ccc(NC(=O)c2cccc(NS(=O)(=O)c3ccccc3)c2)cc1	2.7%	-12%	11%	1.1%	1.3	-1%	-2.7
CCOC(=O)c1ccc(NC(=S)NC(=O)c2cncc(Br)c2)cc1	10%	0%	-8%	nt	3.3	-27%	-4.6
c1ccc(-c2noc(CN3CCc4sccc4C3)n2)cc1	2.4%	11%	-5%[15.4 µM]	nt	2.1	6%	2.3
COc1ccc(C(CNC(=O)c2ccc(S(=O)(=O)N(C)C)cc2)N2CCCCC2)cc1 (centres undefined)	-0.6%	nt	-2%[15.4 µM]	nt	-1.7	16%	2.3
C[C@H](CO)N1C[C@H](C)[C@@H](CN(C)Cc2ccncc2)Oc2c(NS(=O)(=O)c3ccc(F)cc3)cccc2C1=O	4.8%	-13%	nt	-2.4%	-1.2	nt	nt
CC/C(=N/Nc1cccc(C)c1)c1cnnc(SC)n1	13%	13%	6%	-2.1%	-0.1	-17%	?
Cc1cnn(C(=O)Cn2nc(C(F)F)c(Br)c2C)c1	-0.9%	6%	5%[15.4 µM]	nt	-0.8	nt	nt
Cc1ccc(-n2c3c(c(=O)[nH]c2=O)C(NS(=O)(=O)c2ccc(C)cc2)(C(F)(F)F)C(=O)N3)cc1 (centres undefined)	1.0%	8%	8%	-4.4%&-6.0%	-0.9	15%	7.5
COc1cc(/C=C(\C#N)C(=O)N2CCOCC2)cc(Br)c1O	0.9%	-12%	13%	0.8%	-3.0	-8%	?
O=C(C[C@@H]1C/C=C\C[C@H](NC(=O)OCC2c3ccccc3-c3ccccc32)C(=O)OC[C@H]2CCCN2C1=O)NCCO	3.5%	8%	nt	-9.2%	-2.7	nt	nt
COc1cc(OC)cc(C(=O)Nc2ccc(-c3nc4ccccc4o3)cc2)c1	0.6%	-9%	16%	868%	6.2	8.9µM*	0.9
Cn1c(=O)n(C)c2cc(S(=O)(=O)Nc3ccc(F)cc3)ccc21	0.8%	4%	8%[15.4 µM]	-1.1%	4.9	8%	4.1
CC(Oc1ccccc1F)C(=O)NN (centres undefined)	2.6%	-15%	0%	1.2%	-3.8	7%	1.2
CCN(C(=O)C1CCCO1)c1ccccc1 (centres undefined)	-1.2%	7%	-35%[inhibitor]	nt	0.6	15%	2.6
Cc1ccc(C)c(CN2CCC(CNC(=O)Nc3ccc(F)c(Cl)c3)CC2)c1	-3.7%	-11%	3%	nt	-3.3	7%	-4.5
CCOC(=O)c1sc2nc(C(C)C)c3c(c2c1N)CCC3	?	-6%	3%[15.4 µM]	86%	1.3	16%	1.5
COc1ccccc1CNc1cc(-c2ccccc2Cl)ncn1	2.3%	nt	nt	nt	nt	-2%	-1.2
COC(=O)c1c(C)c(C)nc(N)c1C#N	4.0%	0%	15%	8.9µM*	1.0	-7%	-4.9
CN(Cc1ccccc1)C(=O)COC(=O)c1cc(Cl)nc(Cl)c1	0.3%	5%	12%[15.4 µM]	nt	2.6	6%	3.4
O=C(CCCCC(=O)Nc1ccccc1)Nc1ccccc1	1.3%	0%	-11%	1.8%	-4.3	-7%	0.4
CCCNC(=O)N1CCC(C(=O)c2ccc(F)cc2)CC1	-1.8%	-1%	4%	0.9%	-5.7	9%	-1.5
CC(=O)N(Cc1ccc(Cl)cc1)c1cnccn1	1.2%	6%	8%	3.4%	-5.6	2%	-0.9
Cc1cc(SCC(=O)Nc2ccccc2C)nc(C)n1	3.5%	0%	-4%	-1.0%	2.1	9%	5.7
O=[N+]([O-])c1cccc(S(=O)(=O)NCCCN2CCOCC2)c1	0.6%	-16%	8%	0.3%	4.1	11%	-3.5
O=C(Nc1ccccn1)C1CCN(S(=O)(=O)c2ccc3c(c2)OCCO3)CC1	1.9%	3%	-5%	-0.2%	-4.0	nt	nt

Next section:
Molecule	PINK1 expr mod	gsp antagonist	gsp ag	ClpP mod	D2 agonist	Sfp inh	Menin MLL FP FL
O=C(NCCS(=O)(=O)N1CCc2ccccc2C1)c1ccccc1	-0.5%	3%	3%[15.4 µM]	-1.0%	0.2	nt	nt
CCCOc1ccc(OCCSc2ncccn2)cc1	0.3%	-16%	-5%	1.9%	-2.2	6%	4.3
O=C(OCC(=O)N1CCN(C(=O)c2ccco2)CC1)c1cccc(F)c1	-0.1%	4%	3%	-1.5%	-0.2	nt	nt
Cc1nc2ccc([N+](=O)[O-])cc2c(=O)n1Cc1ccc(F)cc1	-0.2%	5%	-1%[15.4 µM]	-3.1%	8.8	-8%	-1.5
CC(NC(=O)c1ccco1)C(c1cccs1)N1CCOCC1 (centres undefined)	0.6%	2%	?	0.2%	0.4	16%	2.4
COC(=O)c1ccc([C@H]2CC(=O)O2)cc1	0.4%	-2%	nt	2.3%	-1.7	7%	0.5
O=C(NCc1ccco1)C1CCN(S(=O)(=O)c2cccc([N+](=O)[O-])c2)CC1	-1.0%	6%	28%	nt	-0.7	10%	-0.2
COc1ccc(/C=C/C(=O)N2CCN(S(=O)(=O)/C=C/c3ccccc3)CC2)cc1OC	12%	-12%	-13%	-9.6%	-1.9	10%	3.5
Cc1oc(-c2cccc(Cl)c2)nc1CN1CCC(C(=O)NCCCN2CC(C)CC(C)C2)CC1 (centres undefined)	-0.5%	14%	-22%	-0.8%	-2.1	7%	nt
COc1ccc2cc(Br)ccc2c1CC(=O)NCC1CCCO1 (centres undefined)	0.0%	11%	?	-2.1%	-4.3	17%	0.9
CCCOc1c(OC)cccc1C1CC(=O)Nc2cc3c(cc21)OCCO3 (centres undefined)	1.9%	16%	-50%[inhibitor]	-1.6%	0.2	1%	0.1
CCOC(=O)CN(C)C(=O)C1CCCN1C(=O)OC(C)(C)C (centres undefined)	-1.1%	8%	nt	0.5%	-1.9	2%	-0.3
O=C(COC(=O)c1ccc([N+](=O)[O-])s1)NC(=O)NCc1ccccc1	-0.5%	0%	-4%	nt	11	-7%	-1.9
CC(OC(=O)CSc1ccc([N+](=O)[O-])cc1)C(=O)NC1CC1 (centres undefined)	2.2%	-8%	?	-3.1%	2.3	nt	nt

Bioassay records: PubChem BioAssay, National Center for Advancing Translational Sciences (NCATS)
